Env fusion inh = blocks HIV Env-driven cell-cell fusion; inhibition, % at 12.3 µM; HeLa-JRFL Env/CEM21 cell fusion, luciferase; 360,000 tested, 1.1% active; AID 651610;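 active = mean replicate inhibition score of at least 50 and every replicate individually at or above 50; inconclusive = only one of the two criteria met; inactive = mean below 50 and not all replicates reaching 50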;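 also: 0% = plate neutral controls and 100% = maraviroc near 300 nM; one replicate is shown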
PABP polyA inh = PABP-poly(A) binding inhibition | PABP-poly(A) RNA binding, fluorescence polarization | inhibition, % at 35 µM | 290,000 tested, 1% active | P11940;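 active = 50% or more with normal probe brightness, or confirmed in later tests; inconclusive = above 50% with abnormal brightness, or retests that disagree; inactive = below 50% or failed in later tests; about a fifth of its hits are not listed in these tables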;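 also: calls also rest on retests at 20 µM and on dose response follow-up; controls were probe without protein and protein plus probe with vehicle; some compounds called inactive have numbers as strong as hits; many hits fall short of the cut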
Yeast UUG start = alters start codon recognition fidelity in yeast | 350,000 tested, 0.13% active | activity score, % at 18.7 µM | S. cerevisiae UUG-firefly luciferase reporter, luminescence/redox ratio;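 active = replicate mean at a twofold rise or more, about +100% in these data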;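 also: firefly luciferase made from a UUG start codon reports start codon fidelity; reporter light over untreated wells divided by growth signal over untreated wells; some hits fall short of that in this replicate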
eIF4H inh = inhibitors of RNA binding by human eIF4H | Q15056 | eIF4H fluorescence polarization binding assay | inhibition, % at 35 µM | 290,000 tested, 0.94% active;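 active = 50% or more with normal probe brightness, or confirmed in later tests; inconclusive = above 50% with abnormal brightness, or retests that disagree; inactive = below 50% or failed in later tests; about a fifth of its hits are not listed in these tables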;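 also: calls also rest on retests at 20 µM and on dose response follow-up; 0% = protein and probe with vehicle and 100% = probe without protein; strong numbers were not always called active; many hits fall short of the cut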
Rce1 inhib = inhibitors of yeast Ras-converting enzyme; Q03530; yeast membranes, quenched prenylated peptide cleavage fluorescence; calls only; 290,000 tested, 0.27% active; AID 2563;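 active = fall in fluorescence gain of 50% or more versus controls, with final raw signal at or below 3038400; inconclusive = same 50% fall but final raw signal above 3038400; inactive = fall in fluorescence gain under 50%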;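 also: plate controls were neutral control wells for no effect and wells lacking membranes for full effect; tested at 10 µM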
Target sequence (Q03530 whole entry, looked up): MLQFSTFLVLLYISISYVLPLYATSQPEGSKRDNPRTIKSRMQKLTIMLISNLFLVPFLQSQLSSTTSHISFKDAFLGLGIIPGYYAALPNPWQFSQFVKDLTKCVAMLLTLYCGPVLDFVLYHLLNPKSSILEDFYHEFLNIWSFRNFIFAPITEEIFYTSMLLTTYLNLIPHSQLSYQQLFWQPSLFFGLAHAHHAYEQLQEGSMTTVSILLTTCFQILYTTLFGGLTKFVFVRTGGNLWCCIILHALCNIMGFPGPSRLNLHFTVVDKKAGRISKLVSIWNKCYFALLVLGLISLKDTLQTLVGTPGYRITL
MT1-MMP act inh = blocks activation of human MT1-MMP | HT1080 RFP-PRO-GFP cells, GFP/RFP ratio fluorescence, overnight; percent of plate control window, DMSO zero | GFP/RFP ratio change, % at 20 µM | 360,000 tested, 0.061% active;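 active = GFP/RFP ratio change of at least 30% with cell ATP level not reduced by more than half and red fluorescence within 50% of control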; also: strong numbers were not always called active
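Assay system – RFP-PRO-GFP reporter HT1080 cells · Compound dosing – single dose of 20 µM compound, 1% DMSO final · Incubation – overnight compound exposure at 37 °C · Measure – GFP/RFP fluorescence ratio · Benchmarks – DMSO wells and RFP-L50D-GFP cells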
CSC inhib = blocks cancer stem cells; cancer stem cell-like cells viability, luminescence; inhibition, % at 7.5 µM; 300,000 tested, 1.1% active; AID 2717;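 active = mean at 75% or more and at least half the replicates too; inconclusive = mean and replicates disagree; tested in HMLE shEcad cells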;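 also: 0% = median of negative and 100% = median of positive control wells; the first replicate is given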
eIF4H inh retest = second read-out of eIF4H inh, no call of its own (marks repeat the call); inhibition, %; compound at 20 µM; confirmation average;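 mean of two retest wells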
PABP polyA inh retest = recorded beside PABP polyA inh, whose call it bears; inhibition, %; compound at 20 µM; confirmation repeats;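 mean of two retest wells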
MT1-MMP act inh RFP = second read-out of MT1-MMP act inh, no call of its own (marks repeat the call); RFP signal change, %; measured here: RFP expression control read;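 0 = vehicle wells; hits needed this value within 50% of zero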
* hit, by the source's call; i = inactive; ? = inconclusive; . = not tested or not shown.

SMILES	Env fusion inh	PABP polyA inh	Yeast UUG start	eIF4H inh	Rce1 inhib	MT1-MMP act inh	MT1-MMP act inh RFP	CSC inhib	others
Cc1ccc(S(=O)(=O)N(CC(=O)Nc2cc(C)ccc2C)C(=O)N2CCN(C)CC2)cc1	4	.	.	.	i	3	2	-6
CC(C)Oc1ccc(C(CC(=O)N2CCOCC2)C(C)C)cc1 (stereo not given)	27	-5	-18	-6	i	-1	-2	1
O=C1C(Cc2ccccc2)NC(=S)N1c1ccccc1 (stereo not given)	.	-2	1	4	i	-7	-3	-1
CCC[C@@H](CN1CCC[C@H]1CN1C(N)=NC[C@H]1CC(C)C)N1C[C@@H](Cc2ccccc2)N(CCCC2CCCC2)C1=N	-16	.	-4	.	.	2	6	.
COc1ccccc1N1CCN(C(=O)CC(NC(=O)c2ccccc2Cl)c2ccccc2)CC1 (stereo not given)	11	.	10	.	.	5	0	.
CN1CCc2c(sc3nc(SCC(=O)N4CCOCC4)nc(N)c23)C1	.	22	.	25	i	-3	1	1
Cc1ccc(CCNC(=O)c2ccc3nc4ccc(Cl)cc4c(=O)n3c2)cc1	-13	13	-7	1	i	1	0	-4
CN(C)C(=O)CSc1nnc(-c2cccnc2)n1-c1ccccc1	-84	-6	-6	-11	i	-6	2	-3
COc1ccc(/C(C)=N/NC(=O)c2cccc(S(=O)(=O)N3CCCC3)c2)c(O)c1	82*	.	-15	.	i	7	-5	100*
CCNC(=O)C1(C)CCCCN1Cc1ccc(C#N)cc1 (stereo not given)	-25	.	-13	.	.	2	4	.
COc1ccc(CCNC(=O)C/C(C)=N/NC(=O)COc2ccc(C)cc2Br)cc1OC	7	9	-17	0	i	5	2	.
Cc1nonc1NC(=O)CSc1nc2c(C)cccc2cc1C#N	-43	10	.	102	i	-117	-4	34	eIF4H inh retest=0;PABP polyA inh retest=8
O=C(CN1CCCN(S(=O)(=O)c2ccc(F)cc2)CC1)Nc1ccccc1Br	13	0	-12	0	i	-1	-11	15
COc1ccc(CNC(=O)CCCn2nc([N+](=O)[O-])cc2C)cc1	-3	-14	.	2	i	1	8	-11
Cc1ccccc1-n1nc(C)c(N=O)c1N	-31	0	.	10	i	0	-1	6
Cc1c(C)c2ccc(OC(C)C(=O)NC3CCN(Cc4ccccc4)CC3)cc2oc1=O (stereo not given)	-8	.	8	.	i	2	2	-10
COc1cc(/C=N/n2nnnc2N)ccc1OC(C)C	-6	0	-22	-2	i	3	4	-12
O=c1cc(N2CCCCC2)nc2n1CCCS2	-23	-3	-17	-4	i	-1	1	.
Cc1ccc(NS(=O)(=O)c2ccc(CCC(=O)N3CCOCC3)cc2)cc1	.	-1	-1	-4	i	-5	0	-21
CCOC(=O)C1(CCOc2ccccc2)CCN(Cc2cccn2-c2cccnc2)CC1	5	-1	.	-3	i	-4	-12	8
O=c1[nH]c(/C(Cl)=C/c2cc(Cl)ccc2O)nc2cc(Cl)ccc12	-22	8	-9	-1	i	-14	-10	101*
O=C(/C=C/c1cccc([N+](=O)[O-])c1)NCCSCc1ccco1	-1	9	.	18	i	1	2	-12
Cc1ccccc1C(=O)OCC(=O)NCC1COc2ccccc2O1 (stereo not given)	-236	.	-4	.	.	5	2	.
CCN(CC)CCn1cnc2c([nH]c3cccc(OC)c32)c1=O	.	4	15	-8	i	1	5	-4
O=C(C1CCCN(c2ncnc3c2nc2n3CCCCC2)C1)N1CCN(c2ccccc2F)CC1 (stereo not given)	9	8	-11	-9	i	5	-7	4
OC(CNC1CCCC1)COc1ccccc1Br (stereo not given)	-3	9	-13	12	i	1	7	-4
Cc1cc(C)n(-c2nncc(-c3ccccc3)n2)n1	.	-9	.	-1	i	4	5	4
COc1ccc(S(=O)(=O)N2CCCCC2)cc1NC(=O)C1CCCC1	10	.	10	.	.	0	4	.
O=S(=O)(c1cccc2cccnc12)n1cnc2ccccc21	.	-1	-20	3	i	1	5	-5
CCOc1ccc(NC(=S)Nc2ccc(C)c([N+](=O)[O-])c2)cc1	-14	-7	-23	5	i	3	3	.
Cc1ccc(-c2cnc(NC(=O)CCC(=O)N(C)Cc3ccccc3)n2C)cc1	-101	0	-31	-5	.	5	3	-12
CC(C)(C)c1nc(SCC(=O)c2ccccc2)c2ccccc2n1	0	2	.	-16	i	-3	-5	19
NC(=O)CSc1nnc2n(N)c(=O)c3ccccc3n12	-8	6	-17	-10	i	1	1	1
Cc1ccc(S(=O)(=O)N2CCOCC2)cc1C(=O)OC(C)C(=O)NC1CCCC1 (stereo not given)	-1	.	119*	.	.	-3	2	-5
CC(C)CCSc1nc2ccccc2[nH]1	-56	-8	.	1	i	2	-2	13
COC(=O)COc1cccc(NC(=O)c2ccc(C)cc2)c1	2	-5	-11	-14	i	0	0	-2
CC(=O)Oc1ccc2c(C)c(CC(=O)N3CCN(C(=O)C4COc5ccccc5O4)CC3)c(=O)oc2c1C (stereo not given)	16	12	-19	-2	i	6	0	-12
CCn1c(SCC(=O)Nc2ccc(S(N)(=O)=O)cc2)nnc1-c1ccccc1OC	.	-4	.	2	i	5	1	14
O=C(CCc1ccc(S(=O)(=O)N2CCOCC2)cc1)OCC(=O)c1ccccc1F	.	.	-6	.	.	-2	4	-3
CCc1noc(C)c1C(=O)N1CCCC(Nc2cccc(F)c2)C1 (stereo not given)	-5	.	-17	.	.	3	8	.

The final 2 entries of the part above lead into the next:
SMILES	Env fusion inh	PABP polyA inh	Yeast UUG start	eIF4H inh	Rce1 inhib	MT1-MMP act inh	MT1-MMP act inh RFP	CSC inhib	others
O=C(CCc1ccc(S(=O)(=O)N2CCOCC2)cc1)OCC(=O)c1ccccc1F	.	.	-6	.	.	-2	4	-3
CCc1noc(C)c1C(=O)N1CCCC(Nc2cccc(F)c2)C1 (stereo not given)	-5	.	-17	.	.	3	8	.
COc1ccccc1NC(=O)Nc1ccc(C(=O)N2CCCCC2)cc1	-50	-1	-35	-5	i	1	-4	19
CCN(CC(=O)Nc1ccc(OC)cc1)C(=O)c1ccc(OCc2c(C)noc2C)cc1	5	.	-10	.	.	0	-3	.
CCCn1c(N)c(C(=O)CSc2nc3ccccc3c(=O)n2-c2ccc(OC)cc2)c(=O)[nH]c1=O	0	5	.	-6	i	2	2	-11
COc1ccc(CN2CCCN(S(=O)(=O)c3ccc(Br)cc3)CC2)cc1	16	-5	-10	-1	i	4	-1	24
CCOc1cc(CNc2ccc3c(c2)OCCO3)cc(Br)c1OC	.	-11	.	-5	i	2	-8	78*
CCOc1ccccc1CNn1cnnc1SCC(=O)NC(C)(C)C	?	.	-22	.	.	-1	4	.
O=C(CSc1nnc(-c2ccccc2Br)o1)Nc1cccc2ccccc12	-85	1	-4	-10	i	3	-2	1
Fc1ccc(N2CCN(c3nc(-c4ccco4)cc(C(F)(F)F)n3)CC2)cc1	3	-11	-16	-7	i	-3	-2	34
CCOC(=O)c1sc(N)c(C#N)c1CSc1nc2ccc(OCC)cc2[nH]1	-18	9	.	6	i	-3	-5	-7
CC1CCCC(NC(=O)CN2C(=O)NC(c3ccccc3)(c3ccccc3)C2=O)C1C (stereo not given)	-8	.	-6	.	.	-1	-6	.
CCOc1ccc(N(CC(=O)Nc2cccc(C)c2C)S(=O)(=O)c2c(C)[nH]c(=O)[nH]c2=O)cc1	4	8	8	-8	i	5	6	2
CC(=O)NNC(=O)N1Cc2ccccc2Oc2ccc(Cl)cc21	-5	.	4	.	i	0	3	-8
CCc1nnc(N/N=C/c2ccccc2F)n1N	8	3	.	-4	i	2	6	-10
COc1ccc(/C(C)=N/NC(=O)CNC(=O)c2cccnc2)c(OC)c1	-35	-9	-10	-4	i	2	3	-9
O=c1[nH]nc(Cc2ccc(Cl)cc2Cl)c2ccccc12	.	18	-27	-3	i	-4	-13	7
CC(=O)c1ccc(S(=O)(=O)N2CCn3cccc3C2C)cc1 (stereo not given)	.	.	9	.	.	-9	3	-1
C[C@]12CC[C@H](O)CC1=CCC1C2CC[C@@]2(C)C1CC[C@@H]2NC(=O)[C@@H](N)Cc1ccccc1 (stereo not given in full)	23	.	-18	.	.	-6	-4	-6
C[C@@H]1CN(Cc2nc(-c3cccs3)no2)C[C@H](C)O1	-9	1	.	-8	i	-2	1	5
Fc1ccc(Nc2nc(NCc3cccs3)nc3ccsc23)cc1	?	.	-13	.	.	-12	-20	.
CCOC(=O)[C@H]1[C@H]2COc3ccc(Br)cc3[C@@H]2N2C(=O)c3ccc(F)cc3NC(=O)[C@@]12C	-151	.	-1	.	.	-7	-10	-7
N#CCCN(CCC#N)C(=O)c1ccc(Cl)cc1	.	-4	-14	15	i	0	4	-9
Cc1ccc(N2CC(C(=O)NCCC3=CCCCC3)CC2=O)cc1 (stereo not given)	-11	.	.	.	i	0	0	-2
O=C(O)CCCCCN1C(=O)/C(=C/c2ccncc2)SC1=S	-21	7	-14	3	i	1	-5	9
CCOC(=O)C1=CN(Cc2ccco2)S(=O)(=O)N(CC)C1c1cccc(OC)c1 (stereo not given)	-9	.	-10	.	.	-1	1	.
Cc1cc(=O)oc2cc(OCC(=O)NC3(C#N)CCCCC3)c(Cl)cc12	20	.	-8	.	.	2	0	.
CN1CCN(c2nc(-c3cccc([N+](=O)[O-])c3)nc3ccccc23)CC1	-4	-2	-11	4	i	-2	3	5
COc1cc(NC(=O)CSCc2cnn(-c3ccccc3)c2-n2cccc2)cc(OC)c1	.	-5	-12	5	i	-1	-7	50
COCCNC(=S)N1CCC(NC(=O)C23CC4CC(CC(C4)C2)C3)CC1	3	-6	.	1	i	4	0	-14
COc1ccc(NC(=O)CSc2ccc3nnc(CCNC(=O)c4ccccc4)n3n2)cc1	-8	4	-13	1	i	-5	1	-7
CC(/C=N/NC(=O)C(O)c1ccccc1)=C\c1ccccc1 (stereo not given)	-17	2	2	1	i	11	2	-3
CC(C)(C)c1csc(CS(=O)(=O)c2ccccn2)n1	3	3	.	-3	i	-4	0	-10
Cc1ccc(S(=O)(=O)N2CCC(C(=O)NCCN3CCCCCC3)CC2)cc1	-75	4	.	-5	i	-5	-1	4
CCNC(=O)COC(=O)CNC(=O)c1cc(Cl)cc([N+](=O)[O-])c1	8	5	-8	10	i	-1	2	-2
COc1ccc(-c2cc(C(=O)Nc3ccc(S(=O)(=O)Nc4onc(C)c4C)cc3)c3ccccc3n2)cc1	-15	21	4	14	.	-3	0	2
Cc1cn(CC2COC(C)(C)O2)c(=O)[nH]c1=O (stereo not given)	?	0	-6	-8	i	4	4	-4
Cc1ccc(O)c(N=Cc2cccs2)c1	-12	10	.	6	i	-1	10	19
CCOc1ccc(CCNC(=O)CS(=O)Cc2nc(-c3ccc(OC)cc3)oc2C)cc1OCC (stereo not given)	5	-2	7	1	i	-2	-3	-15
CN(C)C(=O)CSc1ccc(S(=O)(=O)N2CCOCC2)cn1	.	.	-8	.	.	-2	4	-9
COc1ccc(CNCc2cccc3ccccc23)cc1	3	-7	-8	5	i	5	4	.
Cc1cccc(CN2CCN([C@H]3CS(=O)(=O)N[C@@H]3COCc3ccccc3)CC2)c1	-41	.	-1	.	.	4	-4	.
Cc1ccc(S(=O)(=O)N/N=C/c2c[nH]c3ccccc23)cc1	0	1	-4	-7	i	1	-6	-5
CCN1CCN(c2ccc(Nc3ccnc4ccccc34)cc2)CC1	10	.	-12	.	.	-2	0	.
COc1ccc(NC(=O)CCNC(=O)c2ccccc2Cl)cc1S(=O)(=O)N1CCCCC1	-11	.	18	.	.	5	3	.
